Source: PubChem BioAssay (several laboratories)
Autofluor counter: compound fluorescence in toxin protease inhibitor counterscreen; compound autofluorescence counterscreen, microsphere flow cytometry; stronger effect = higher value; fluorescence intensity (concentration not given with the values); 360,000 compounds, 3.1% hits;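 active = at least 3 SD above the mean of all compounds, about 16000 in these data; inconclusive = too few beads counted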;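 note: 100 nL of 1 mM stock went into each well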
Mtb hypoxia rep: PubChem AID 1159583. 300,000 compounds, 0.1% hits. M. tuberculosis hypoxia-regulated fluorescent reporter, fluorescence. fluorescence inhibition, % (test concentration not listed);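 active = 35 to 45% if threefold the growth effect, above 45% if 1.5-fold the growth effect; inactive = the rest, general growth blockers included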;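 note: wells of about 50 µL received 100 nL stock; 0% = vehicle wells and 100% = reference inhibitor wells; whole bacteria with a GFP reporter of the hypoxia response; strong numbers were not always called active; many hits fall short of the cut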
PrP 5UTR inh: inhibition of PrP 5' UTR reporter expression. cell-based PrP 5' UTR mRNA reporter, plate reader. inhibition, % (no concentration beside the values). 340,000 compounds, 0.35% hits. AID 488862, 2010;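 active = every replicate at 50% or more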;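 note: 0 = median of the neutral control wells; tested in H4 reporter cells; numbers are from one replicate; inactives centre near -14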
BJeLR viability: MLPCN primary cell-based screen for lethality selective to Ras in HRASV12 cells; 300,000 compounds, 0.17% hits; inhibition, % (concentration not given with the values); BJeLR (HRASV12) viability, CellTiter-Glo ATP luminescence, 48 h; reference of the scale not given here;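 active = replicate mean above 50%; inconclusive = above 50% but judged a plate artefact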;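 note: 50 nL library stock added to about 25 µL; numbers are from one replicate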
Sa RN4220 lethal: growth inhibition of S. aureus RN4220, primary screen, OD600. 16 h. inhibition, % (concentration not given with the values). 330,000 compounds, 0.33% hits;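 active = z-score of -3 or lower and OD600 up to 0.18 on both plates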;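 note: plate controls were untreated cells for no effect and reference antibiotic for full effect; stock transfer was 100 nL into about 80 µL; one replicate is shown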
ugtP null kill: growth inhibition of ugtP-null S. aureus, primary screen, RN4220 ugtP deletion, OD600. 16 h; some inactives read as strong as hits. 330,000 compounds, 0.54% hits. growth inhibition, % (no concentration beside the values);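 active = z-score under -3 and OD600 up to 0.15 on both plates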;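 note: plate controls were untreated wells for no effect and antibiotic for full effect; wells of about 80 µL received 100 nL stock; the first replicate is given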
Mtb hypoxia rep growth: also measured in Mtb hypoxia rep; calls as there; growth inhibition, %; measured here: M. tuberculosis growth (absorbance);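 0% = vehicle and 100% = reference antibiotic; read after six days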
Active calls of the source: *; ? = inconclusive; nt = no result given. This is a random part of the collection; about 4.1% have a hit in one of these screens.

SMILES | Autofluor counter | Mtb hypoxia rep | Mtb hypoxia rep growth | PrP 5UTR inh | BJeLR viability | Sa RN4220 lethal | ugtP null kill
CC(C(=O)Nc1ccccc1Br)N1c2cccc3cccc(c23)S1(=O)=O (stereo unspecified) | 4038 | -4 | -6 | -28 | 0 | -2.2 | -4
CC1CCCCN1Cc1c(O)ccc2c(=O)c(-c3ccccc3)coc12 (stereo unspecified) | 3955 | 11 | 3 | -13 | 6 | 0.7 | 0
Nc1nnc(SCC(=O)NNC(=O)c2ccc([N+](=O)[O-])cc2)s1 | 5334 | -5 | 0 | -18 | nt | 5.0 | 3
CC(=O)OCCCN(C)CC/C=C1/c2ccccc2CSc2ccccc21 | 5767 | -1 | -1 | -7 | 5 | -0.1 | 3
CCc1cccc(C)c1NC(=O)CN(C)Cc1ccccc1F | 2045 | 3 | 8 | 7 | 0 | 3.6 | 3
Cc1ccc(NC(=O)/C(=C\c2cccnc2)NC(=O)c2ccccc2)cc1 | 5169 | -7 | -7 | -12 | -2 | 3.1 | 5
Cc1ccc(-c2nnc(SCC#N)n2N)cc1 | 5051 | nt | nt | -2 | 1 | 1.4 | -2
Cc1ccc(C(=O)CC(Nc2ccc(F)cc2)c2ccccc2)cc1 (stereo unspecified) | 9371 | nt | nt | -54 | -1 | -3.7 | 34
CCCOc1ccc(C=NNc2cc(N3CCOCC3)ncn2)c(O)c1 | nt | 15 | 7 | nt | nt | 73 | 78
CC(=NNS(=O)(=O)c1ccc(C)cc1)c1cc2ccccc2oc1=O | nt | 10 | 15 | nt | nt | 4.9 | -1
CCOC(=O)c1cc(NC(=O)N2CCOCC2)c(C)nc1C | 2846 | nt | nt | 9 | 7 | 0.8 | 0
N#C/C(=C/c1ccc(-c2cc([N+](=O)[O-])ccc2Cl)o1)C(N)=O | 4417 | 8 | 1 | 12 | 2 | 5.0 | 0
COCCn1c(SCC(=O)NC(=O)NC2CCCC2)nc2ccccc2c1=O | 5558 | -9 | 8 | nt | nt | 3.6 | 1
c1coc(CNc2nc3nonc3nc2NCc2ccco2)c1 | 4356 | 7 | 6 | -14 | nt | -7.3 | -8
CSc1nsc(SCC(=O)Nc2cccc(C(C)=O)c2)n1 | 21617* | 6 | 9 | -17 | 0 | -1.5 | -1
Cc1nnc(SCc2cc([N+](=O)[O-])cc3c2OCOC3)[nH]c1=O | 5339 | 12 | 5 | -19 | -6 | 6.8 | 7
CC(=O)N/C(=C\c1ccccc1)C(=O)OC/C=C/c1ccccc1 | 5599 | -12 | -5 | -8 | 6 | 5.1 | 4
COc1ccc(NC(=O)C2CC(c3ccc(Cl)cc3)=NO2)cc1 (stereo unspecified) | 3152 | nt | nt | -9 | -5 | nt | nt
NC(N)=NS(=O)(=O)c1ccc(NC(=S)NC(=O)/C=C/c2ccco2)cc1 | 10623 | 4 | 2 | -19 | 10 | 6.9 | 76
Cc1cc(C(=O)C(C)OC(=O)c2ccc(NC(=O)CC#N)cc2)c(C)n1-c1ccccc1 (stereo unspecified) | ? | -1 | -1 | 3 | 2 | 0.6 | -5
Fc1ccc(-c2nnc(-n3nnc4ccccc43)c3ccccc23)cc1 | 9136 | 14 | 2 | -26 | -17 | 6.5 | 8
O=C1CC(c2ccccc2)CC(O)=C1C=NCCN1CCN(C(=S)Nc2cccc(Cl)c2)CC1 (stereo unspecified) | 9564 | 1 | -1 | -20 | -1 | 4.8 | 4
Cc1onc(-c2ccccc2Cl)c1C(=O)Nc1nnc(-c2cccc([N+](=O)[O-])c2)s1 | 4697 | 9 | 10 | -6 | -3 | -12 | 10
COc1ccccc1C(=O)COC(=O)Cn1nc(C)c([N+](=O)[O-])c1C | nt | -4 | -6 | -21 | -6 | 2.9 | 0
FC(F)(F)c1nc(-c2cccs2)ncc1-c1nnnn1-c1ccc(Cl)cc1 | 3870 | -1 | 1 | -21 | 4 | -1.8 | -7
COC(=O)C(C)(C)ONC(=O)Nc1ccc(C)cc1 | 2497 | 14 | -3 | -53 | -18 | 6.2 | 7
COc1ccccc1NC(=S)NCc1ccc(Cl)cc1 | 3989 | 14 | 6 | -5 | -7 | 4.6 | 8
CC(C)(C)c1ccc(-c2csc(NNC3=NCCCCC3)n2)cc1 | 20221* | 6 | 2 | -30 | 19 | 7.3 | 1
CC(C)CC1(C(=O)NCCc2c[nH]c3ccccc23)C=CCN1C(=O)c1ccccc1 (stereo unspecified) | 3572 | 13 | 8 | -18 | 2 | 4.3 | 6
O=C(CNS(=O)(=O)c1c(F)cc(F)cc1Br)OCC(=O)N1CCCC1=O | 6221 | -2 | 2 | -9 | 5 | 4.1 | 1
CC1CCN=C(N)S1 (stereo unspecified) | 6058 | -2 | 0 | -20 | 3 | 6.3 | -3
Cc1ccc(C)c(S(=O)(=O)c2c[nH]c(=S)[nH]c2=O)c1 | 5431 | 4 | 5 | -6 | 12 | 2.0 | 10
Cc1cccc(C)c1NC(=O)CCCSc1nnc(-c2ccco2)n1-c1ccccc1 | 4127 | nt | nt | -12 | -7 | -0.4 | 0
COc1ccc(OC)c(N2CC(O)=C(c3nc4ccccc4s3)C2=N)c1 | 5031 | nt | nt | -3 | -4 | -2.0 | 10
Cc1[nH]n(-c2ccccc2)c(=O)c1N=Nc1ccc(F)cc1 | 3766 | -8 | 7 | -18 | -7 | 0.3 | -4
CCN(C[C@H]1N[C@@](C)(C(=O)OC)[C@H]2C(=O)N(Cc3ccccc3)C(=O)[C@@H]12)S(=O)(=O)c1ccccc1 | 3949 | -9 | 7 | -15 | nt | 3.4 | 1
COc1ccc(-n2nnnc2SCC(=O)Nc2cc(OC)c([N+](=O)[O-])cc2C)cc1 | 4403 | 2 | 5 | -19 | 14 | -2.5 | -12
CCC(C)(C)NC(=O)CN(Cc1ccccc1)C(=O)CCC(=O)Nc1nccs1 | 2939 | 14 | -2 | -18 | 4 | 5.6 | 6
Cc1cccc(C)c1OCC(=O)N1CC2(C)CC1CC(C)(C)C2 (stereo unspecified) | 4060 | nt | nt | -12 | -2 | 9.1 | -1
CCOC(=O)Cn1nnnc1C(CC)N(Cc1cccs1)Cc1cc2cc(C)ccc2[nH]c1=O (stereo unspecified) | 2396 | nt | nt | -15 | -1 | -1.6 | -10
COc1ccc(/C(C)=N\NC(=O)c2ccc(-c3ccccc3)cc2)c(F)c1 | ? | nt | nt | -2 | 6 | nt | nt
O=C(CCn1c(=S)oc2ccccc21)Nc1ccccc1F | 2696 | -4 | 11 | -16 | -11 | 2.7 | -4
Cc1noc(C)c1S(=O)(=O)N1CCN(c2ccc(Cl)cc2)CC1 | 5622 | 11 | 8 | -38 | 0 | -1.1 | 2
Cc1csc2cc(-c3cccc([N+](=O)[O-])c3)c(-c3cccc([N+](=O)[O-])c3)c[n+]12 | 2154 | 4 | 3 | -6 | -12 | 4.7 | 1
COC(=O)C1=C(c2ccc(F)cc2OCc2ccccc2)CC2CCC1N2C(=O)N1CCOCC1 (stereo unspecified) | nt | 5 | 4 | nt | nt | 3.3 | 4
CCn1c(N)nc2c1c(=O)n(C)c(=O)n2C | 4937 | -2 | 4 | -21 | -15 | 5.7 | 4
COc1cccc(SCc2noc(C(=O)NCCN(C)C)c2C(=O)NCCN(C)C)c1 | 4274 | 6 | 6 | 0 | 12 | 4.3 | -10
CC(Cc1ccccc1)NC(=O)/C=C/c1ccc(Cl)cc1 (stereo unspecified) | 2932 | 5 | 7 | -17 | 9 | 2.4 | -6
COc1ccccc1NS(=O)(=O)c1ccc(C(=O)NCCCn2ccnc2)cc1 | ? | 12 | 12 | -2 | nt | 0.9 | 4
COc1cccc(-n2nc(C(=O)Nc3ccc4c(c3)OCO4)c3ccccc3c2=O)c1 | 5620 | nt | nt | -22 | -4 | -0.1 | 15
CC1(C)CC(=O)C=C(NCCN2CCN(C(=O)Nc3ccc(Cl)cc3)CC2)C1 | 3108 | 0 | 6 | -15 | -3 | 2.5 | -7
COc1ccc([C@@H](C)NC(=O)c2ccc3oc(C(C)C)nc3c2)cc1 | 7384 | 6 | 7 | -54 | 5 | -2.6 | 9
CCOc1ccc(S(=O)(=O)N2Cc3ccccc3CC2C(=O)NCCCn2ccnc2)cc1 (stereo unspecified) | 3666 | -6 | 6 | 4 | 5 | 1.0 | 4
COc1ccc(Cl)cc1C(=O)N1CCC2(CC1)CC(=O)c1ccccc1O2 | 4584 | 5 | -1 | -12 | 2 | 3.6 | 8
CCOC(=O)N1CCN(c2ccc([N+](=O)[O-])cc2)CC1 | 2074 | 7 | -8 | -14 | -5 | 2.5 | 14
O=C(Cn1cnc2c(OCc3ccccc3)ncnc21)NCCCn1ccnc1 | 3791 | -1 | 6 | -14 | nt | -0.8 | -1
Cc1cc(C(F)(F)F)n2nc(-c3cnn(C)c3C(F)(F)F)c(Cl)c2n1 | 5792 | 4 | 5 | -19 | -2 | 3.4 | 6
Cc1cc(C(=O)Nc2cccc(S(=O)(=O)N3CCOCC3)c2)c2ccccc2n1 | 3612 | 4 | 6 | -11 | nt | 5.2 | -2
COc1cccc(-n2c(CCn3nc(C)c([N+](=O)[O-])c3C)n[nH]c2=S)c1 | 2079 | -8 | -10 | -6 | -11 | 6.7 | 7
C/C(=N\NC(=O)CNc1cccc(C(F)(F)F)c1)c1ccc(Br)cc1 | 2592 | nt | nt | -8 | 8 | nt | nt

No new results follow: an excerpt of the list.
SMILES | Autofluor counter | Mtb hypoxia rep | Mtb hypoxia rep growth | PrP 5UTR inh | BJeLR viability | Sa RN4220 lethal | ugtP null kill
CCn1c(N)nc2c1c(=O)n(C)c(=O)n2C | 4937 | -2 | 4 | -21 | -15 | 5.7 | 4
COc1cccc(SCc2noc(C(=O)NCCN(C)C)c2C(=O)NCCN(C)C)c1 | 4274 | 6 | 6 | 0 | 12 | 4.3 | -10
CC(Cc1ccccc1)NC(=O)/C=C/c1ccc(Cl)cc1 (stereo unspecified) | 2932 | 5 | 7 | -17 | 9 | 2.4 | -6
COc1ccccc1NS(=O)(=O)c1ccc(C(=O)NCCCn2ccnc2)cc1 | ? | 12 | 12 | -2 | nt | 0.9 | 4
COc1cccc(-n2nc(C(=O)Nc3ccc4c(c3)OCO4)c3ccccc3c2=O)c1 | 5620 | nt | nt | -22 | -4 | -0.1 | 15
CC1(C)CC(=O)C=C(NCCN2CCN(C(=O)Nc3ccc(Cl)cc3)CC2)C1 | 3108 | 0 | 6 | -15 | -3 | 2.5 | -7
COc1ccc([C@@H](C)NC(=O)c2ccc3oc(C(C)C)nc3c2)cc1 | 7384 | 6 | 7 | -54 | 5 | -2.6 | 9
CCOc1ccc(S(=O)(=O)N2Cc3ccccc3CC2C(=O)NCCCn2ccnc2)cc1 (stereo unspecified) | 3666 | -6 | 6 | 4 | 5 | 1.0 | 4
COc1ccc(Cl)cc1C(=O)N1CCC2(CC1)CC(=O)c1ccccc1O2 | 4584 | 5 | -1 | -12 | 2 | 3.6 | 8
CCOC(=O)N1CCN(c2ccc([N+](=O)[O-])cc2)CC1 | 2074 | 7 | -8 | -14 | -5 | 2.5 | 14
O=C(Cn1cnc2c(OCc3ccccc3)ncnc21)NCCCn1ccnc1 | 3791 | -1 | 6 | -14 | nt | -0.8 | -1
Cc1cc(C(F)(F)F)n2nc(-c3cnn(C)c3C(F)(F)F)c(Cl)c2n1 | 5792 | 4 | 5 | -19 | -2 | 3.4 | 6

The listing continues:
SMILES | Autofluor counter | Mtb hypoxia rep | Mtb hypoxia rep growth | PrP 5UTR inh | BJeLR viability | Sa RN4220 lethal | ugtP null kill
CC1CCCC(C(=O)O)N1C(=O)CCSSCCC(=O)N1C(C)CCCC1C(=O)O (stereo unspecified) | 8446 | 9 | 0 | -16 | -20 | 0.9 | 1
Cc1nn(S(=O)(=O)c2cccc([N+](=O)[O-])c2)c(C)c1S(=O)(=O)N1CCOCC1 | 5113 | 10 | 1 | -16 | 1 | 2.4 | 1
COc1ccc(S(=O)(=O)N2CCN(c3ccc(F)cc3)CC2)cc1OC | 2985 | 11 | 7 | -10 | -6 | -2.1 | 0
Cc1ccc(C(=O)N/C(=C\c2ccccc2)C(=O)NCC2CCCO2)cc1 (stereo unspecified) | 2012 | 6 | 4 | -11 | -8 | 0.2 | 5
CCN(CC)c1ccc(C(=O)NN=Cc2ccc(OC)cc2OC)cc1 | nt | 12 | 3 | nt | nt | 4.1 | -1
